# Ecoli growth = E. coli growth inhibition. Escherichia coli growth, OD600, 23 h; hits give low values. OD600 absorbance (concentration not given with the values). 0.21% of 330,000 active;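 active = OD600 absorbance below the run mean of sample wells minus 3.6 SD, in any replicate, cut at about 0.56 in these data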;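 note: stock transfer was 300 nL into about 60 µL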
# FGF22 binding = shifts melting point of recombinant human FGF22; recombinant FGF22 thermal shift, SYPRO orange fluorescence; percent of sucrose octasulfate shift, DMSO zero; calls only at 9.99 µM; 1.5% of 340,000 active; AID 651658;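 active = melting point raised past a set limit in the mean and every replicate; three in four hits are not shown here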
# Target sequence (Q9HCT0 whole entry, looked up): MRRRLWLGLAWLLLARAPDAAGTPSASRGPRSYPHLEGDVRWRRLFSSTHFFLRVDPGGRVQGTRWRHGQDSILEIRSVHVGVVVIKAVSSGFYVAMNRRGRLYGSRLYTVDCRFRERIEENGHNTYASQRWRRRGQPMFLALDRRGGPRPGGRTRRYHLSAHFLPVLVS
# Vif A3G = HIV-1 Vif–A3G interaction blockers – biochemical, TR-FRET, GST-Vif 1-94, biotin-A3G peptide, dose response retest, primary screen (AID 1117319); TR-FRET GST-Vif / biotin-A3G peptide binding; higher % means a stronger effect; test concentration not given here; strong numbers were not always called active; one-dose inhibition, %; IC50 in µM for titrated hits; 0.57% of 260,000 active;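 active = above the screen mean plus three standard deviations and confirmed in dose response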;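 note: Vif residues 1-94 fused to GST binding biotinylated APOBEC3G peptide 110-148; 0% = full assay without inhibitor and 100% = GST in place of GST-Vif; retest series ran down from 100 µM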
# MLL AF4-AF9 inh = inhibitors of human MLL-AF4/AF9 interaction. P42568. AlphaScreen, biotin-AF4 peptide binding to FLAG-AF9. inhibition, % at 10 µM. 0.47% of 350,000 active. AID 651704;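 active = every replicate reaching a set inhibition limit, whatever the replicate mean, cut at about 25% in these data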;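 note: 0% = plate neutral control median and 100% = total signal loss; the record names both 10 and 1 µM as test concentration; the first replicate is given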
# Target sequence (P42568 whole entry, looked up): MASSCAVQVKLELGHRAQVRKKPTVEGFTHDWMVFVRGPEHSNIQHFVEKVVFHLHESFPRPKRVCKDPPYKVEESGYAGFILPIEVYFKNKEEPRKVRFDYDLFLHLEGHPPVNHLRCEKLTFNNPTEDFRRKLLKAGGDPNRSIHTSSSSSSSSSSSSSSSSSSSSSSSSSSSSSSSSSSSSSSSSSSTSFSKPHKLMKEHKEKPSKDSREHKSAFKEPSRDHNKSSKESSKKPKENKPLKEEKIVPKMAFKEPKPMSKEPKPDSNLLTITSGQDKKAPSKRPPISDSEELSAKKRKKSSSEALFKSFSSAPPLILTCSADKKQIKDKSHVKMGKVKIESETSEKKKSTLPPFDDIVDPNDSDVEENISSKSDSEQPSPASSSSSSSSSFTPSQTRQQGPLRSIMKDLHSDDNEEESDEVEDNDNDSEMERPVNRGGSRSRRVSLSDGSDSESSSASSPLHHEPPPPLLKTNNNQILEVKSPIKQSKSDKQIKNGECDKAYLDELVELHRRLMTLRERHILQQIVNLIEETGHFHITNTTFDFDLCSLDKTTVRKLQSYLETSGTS
# Ecoli rRNA inh = inhibitors of bacterial rRNA selective over humanized ribosomes; GFP signal change (wild-type ribosome), % (concentration not given with the values); 1.6% of 350,000 active; E. coli WT GFP vs humanized-ribosome RFP mutants, fluorescence, 24 h; hits give low values; DMSO median 0, no signal -100;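 active = significant combined selectivity score with lowered wild-type GFP, culture density cut under 30%, mutant RFP and density less affected; inactive = any of these conditions unmet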; note: one replicate is shown; some compounds called inactive have numbers as strong as hits
# HNF4A DNA FP = change in binding of human HNF4 alpha to DNA | P41235 | HNF4a-FITC DNA binding, fluorescence polarization, 1 h | activity change, % at 10 µM | 0.3% of 360,000 active | AID 1224865; in the data active = activity change above about 30%, passing the limit was not always enough;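 note: controls were the assay level and a saturating level of protein; the project sought stronger binding though the title names inhibitors; some compounds called inactive have numbers as strong as hits; positive values seem to mean higher polarization but the record does not say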
# ALR inh = human ALR oxidase inhibition via reduced H2O2. inhibition, % (test concentration not listed). 3.8% of 290,000 active. P55789. purified ALR, DTT oxidation, H2O2 HRP-luminol luminescence. AID 485317;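 active = mean and each replicate at 75% or more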;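 note: stock transfer was 7.5 nL into about 7.5 µL; 0% = neutral wells and 100% = wells with inactivated enzyme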
# Target sequence (P55789 whole entry, looked up): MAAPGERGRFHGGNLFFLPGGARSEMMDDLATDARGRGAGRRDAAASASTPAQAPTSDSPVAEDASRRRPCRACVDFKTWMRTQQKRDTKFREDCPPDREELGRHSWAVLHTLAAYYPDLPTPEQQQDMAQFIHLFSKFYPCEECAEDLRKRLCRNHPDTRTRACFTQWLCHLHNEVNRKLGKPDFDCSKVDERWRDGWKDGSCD
# Ecoli rRNA inh OD600 = further read-out of Ecoli rRNA inh, marked with its call; OD600 change, %; measured here: OD600 growth;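 optical density of the mix in the first replicate; 0 = DMSO median and -100 = no signal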
# Ecoli rRNA inh RFP = recorded beside Ecoli rRNA inh, whose call it bears; RFP signal change, %; measured here: RFP humanized mutant strains;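 first replicate; 0 = DMSO median and -100 = no signal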
# Numbers without * were called inactive; i = inactive; . = no result given. The list is partial; count on the stated rates, not on these rows.
SMILES,Ecoli growth,FGF22 binding,Vif A3G,MLL AF4-AF9 inh,Ecoli rRNA inh,Ecoli rRNA inh OD600,Ecoli rRNA inh RFP,HNF4A DNA FP,ALR inh
CCc1ccc(NC(=O)c2cccc(NC3=NC4CS(=O)(=O)CC4S3)c2)cc1 (centres undefined),0.8,i,.,-5.1,5,7,0.6,0.0,34
CC(C)CN(C(=O)c1cccc(F)c1)c1c(N)n(CC(C)C)c(=O)[nH]c1=O,0.69,i,.,-0.8,7,11,0.1,-0.2,-1
CCOC(=O)CSc1nc2ccccc2c(=O)n1C1CCCC1,0.69,.,10%,.,.,.,.,-1.2,-7
CCOc1ccc(CNc2cccc(SC)c2)cc1,0.67,.,8%,7.4,-17,-10,-0.8,-1.5,69
COC(=O)c1cc2oc(C)cc2n1CC(=O)N1CCCc2ccccc21,0.64,i,7%,10,7,-4,0.4,-0.4,6
Nc1ncnc2c1ncn2[C@@H]1O[C@H](CNCc2ccccc2OCc2ccc(Cl)cc2Cl)[C@@H](O)[C@H]1O,0.68,i,-4%,4.0,-27,-50,29,3.7,.
O=C1NC[C@H](CCCCN2CCN(CCc3ccccc3)C(=O)C2=O)N(Cc2ccccc2)C1=O,.,i,.,-0.7,15,18,0.5,2.6,.
CCn1c(CNc2ccc(Cl)cc2)nnc1SCc1ccccc1,0.69,.,64%,.,.,.,.,-12,13
O=C(COc1ccc(Cl)cc1)NC1CC1,0.7,i,.,-1.5,9,11,-3.3,0.1,-4
O=C(NC1CCC1)[C@H]1[C@H](CO)[C@H]2Cn3c(ccc(C4=CCCC4)c3=O)[C@@H]1N2C(=O)c1ccccc1,.,i,.,-17,-1,-2,1.3,.,.

# The last 7 entries of the part before come first, to join the parts:
SMILES,Ecoli growth,FGF22 binding,Vif A3G,MLL AF4-AF9 inh,Ecoli rRNA inh,Ecoli rRNA inh OD600,Ecoli rRNA inh RFP,HNF4A DNA FP,ALR inh
CCOc1ccc(CNc2cccc(SC)c2)cc1,0.67,.,8%,7.4,-17,-10,-0.8,-1.5,69
COC(=O)c1cc2oc(C)cc2n1CC(=O)N1CCCc2ccccc21,0.64,i,7%,10,7,-4,0.4,-0.4,6
Nc1ncnc2c1ncn2[C@@H]1O[C@H](CNCc2ccccc2OCc2ccc(Cl)cc2Cl)[C@@H](O)[C@H]1O,0.68,i,-4%,4.0,-27,-50,29,3.7,.
O=C1NC[C@H](CCCCN2CCN(CCc3ccccc3)C(=O)C2=O)N(Cc2ccccc2)C1=O,.,i,.,-0.7,15,18,0.5,2.6,.
CCn1c(CNc2ccc(Cl)cc2)nnc1SCc1ccccc1,0.69,.,64%,.,.,.,.,-12,13
O=C(COc1ccc(Cl)cc1)NC1CC1,0.7,i,.,-1.5,9,11,-3.3,0.1,-4
O=C(NC1CCC1)[C@H]1[C@H](CO)[C@H]2Cn3c(ccc(C4=CCCC4)c3=O)[C@@H]1N2C(=O)c1ccccc1,.,i,.,-17,-1,-2,1.3,.,.
CCOC(=O)C1CCN(C(=O)c2cc3ccccc3oc2=O)CC1,0.68,i,2%,0.4,6,2,-3.2,-0.9,-5
C[C@H](c1ccccc1)N1C[C@@H](COCc2ccccc2)Oc2cc(N3CCC[C@@H]3CO)ccc2S1(=O)=O,.,i,.,-4.2,5,5,46,8.4,.
O=C(C[C@H]1CC[C@@H](NC(=O)c2ccc(F)cc2)[C@H](CO)O1)NCCc1ccccc1,.,i,.,0.4,4,13,2.9,.,.
O=C1C2C3CCC(C3)C2C(=O)N1c1ccc(OS(=O)(=O)c2ccccc2)cc1 (centres undefined),0.66,i,0%,-4.8,-1,25,-2.3,-1.1,-73
Cc1ccc(S(=O)(=O)N(C)C[C@H]2Oc3c(NS(=O)(=O)c4ccccc4)cccc3C(=O)N([C@@H](C)CO)C[C@H]2C)cc1,.,i,.,-1.6,2,8,-1.7,.,.
O=C(Cc1ccc(F)cc1)N(c1ccccc1)C1C=CS(=O)(=O)C1 (centres undefined),0.67,.,23%,.,.,.,.,-1.2,-8
COc1ccc(/C=[N+](\[O-])C2N(c3ccccc3)C(=S)SC2(C)C)cc1OC (centres undefined),0.69,i,.,0.2,.,.,.,-1.5,-5
Nc1nnc(-c2ccc(Cl)cc2)o1,0.71,i,22%,3.1,9,12,-0.6,0.4,-1
CC(C)(C)C(=O)CSc1nc2c(c(-c3cccs3)c1C#N)CCC2,0.69,i,.,-1.0,-4,1,-1.3,-0.4,-3
CC(=O)Nc1ccc(-c2ccnc3c2CC(C(=O)Nc2cccc(Oc4ccccc4)c2)O3)cc1 (centres undefined),.,i,.,-9.3,-7,-3,5.0,0.4,.
O=C(N/N=C/c1ccccn1)c1cccs1,.,i,2%,-8.4,-24*,-5.6*,-1.5*,3.5,-2
COc1ccc(S(=O)(=O)N2CCOCC2)cc1NC(=O)Cc1sc(C)nc1-c1ccc(F)cc1,.,i,.,-17,-5,2,1.8,1.4,.
COCc1cccc(-c2csc(C(NC(C)=O)c3cccc(F)c3)n2)c1 (centres undefined),.,i,.,1.2,0,-2,2.9,2.1,.
COc1ccc(NC(=O)C2CC3CCC2C3)c(OC)c1 (centres undefined),0.64,i,.,1.0,0,-17,-1.8,-0.4,-21
CN1CCN(C(=O)C[C@@H]2C[C@@H]3c4cc(NC(=O)c5ccc6c(c5)OCO6)ccc4O[C@@H]3[C@H](CO)O2)CC1,.,i,.,-1.1,-2,4,-1.9,.,.
CCOC(=O)C1=CCN(S(=O)(=O)c2ccc(C)cc2)C1c1ccc(CC)cc1 (centres undefined),.,i,.,-0.5,7,-4,0.5,2.8,.
Cc1c(C(=O)N2CCCCC2)c(S(=O)(=O)N2c3ccccc3CC2C)c(C)n1C (centres undefined),0.66,i,.,4.5,6,4,0.4,-5.3,-3
Cc1noc(C)c1NC(=O)Nc1ccc2c(c1)CC(=O)N([C@@H](C)CO)C[C@@H](C)[C@@H](CN(C)S(=O)(=O)c1ccc(Cl)cc1)O2,.,i,.,2.7,4,5,-3.2,.,.
CCOc1ccc(OCc2ccc(C(=O)Nc3cccnc3)o2)cc1,0.67,.,8%,.,.,.,.,-3.0,-18
O=C(O)Cc1c[nH]c2ccccc12,0.76,i,.,-3.2,.,.,.,-3.1,-9
O=C(C1CCOCC1)N1C[C@@H]2[C@H](c3ccccc31)[C@H](CO)N2Cc1ccc(Cl)cc1,.,i,.,-2.4,-4,15,0.8,.,.
Cc1cc(C(=O)Nc2cccc3c2O[C@H](CN(C)Cc2ccc(C(F)(F)F)cc2)[C@@H](C)CN([C@H](C)CO)C3=O)n(C)n1,.,i,.,11,-8,-6,-2.5,.,.
COc1cc(OC)c(NC(=S)Nc2cc(Cl)cc(Cl)c2)cc1Cl,0.66,i,7%,0.8,-17,-8,19,-4.5,-13
C[C@@H]1CN([C@@H](C)CO)C(=O)Cc2cc(NC(=O)Cc3ccccc3)ccc2O[C@H]1CN(C)C,.,i,.,-0.1,3,2,-2.0,.,.
O=C(/C=C/[C@H]1O[C@@H](n2ccc(=O)[nH]c2=O)[C@H](O)[C@@H]1O)NCc1cccnc1,.,i,.,-4.0,.,.,.,-1.6,.
CC(C)(C)S(=O)(=O)c1cnc(N2CCCCC2)nc1N,0.7,i,-1%,.,18,7,2.7,-0.4,-4
O=C(/C=C/c1ccc(-c2ccccc2)cc1)NCc1cccnc1,0.69,i,.,1.9,-9,-8,-12,-2.2,-9
C=CCNC(=S)N1CCC(C(=O)c2ccc3c(c2)OCCO3)CC1,0.67,i,-4%,0.4,-4,8,-8.0,-0.1,.
C[C@H](CO)N1C[C@H](C)[C@@H](CN(C)Cc2ccc(C(=O)Nc3ccccc3N)cc2)Oc2c(NC(=O)Nc3ccccc3)cccc2C1=O,.,i,.,0.1,3,9,1.7,.,.
Cc1ccc(/C=C2/SC(=S)N(CCC(=O)NCCCN3CCOCC3)C2=O)cc1,.,i,10%,3.3,-9,-1,1.7,3.6,-2
CCCC#Cc1ccc([C@@H]2[C@@H](C#N)N(S(=O)(=O)c3cccc(F)c3)[C@H]2CO)cc1,.,i,.,2.5,-31,-63,5.0,.,.
O=C(C1CCC(=O)N1Cc1cccs1)N1CCOCC1 (centres undefined),0.59,i,4%,-0.7,4,-1,-5.8,0.5,-1
Cc1ccc2c(c1)sc1nncn12,.,i,-1%,-0.2,.,.,.,0.3,.
O=C(COC(=O)c1cccc(S(=O)(=O)N2CCCC2)c1)Nc1ccccc1C(F)(F)F,0.63,i,4%,-1.4,-6,-4,1.2,-2.0,.
Cc1cc(=O)oc2cc(OCc3c(F)cccc3Cl)ccc12,.,i,.,-4.3,9,12,0.6,.,.
CCOC(=O)c1cccnc1SCC(=O)Nc1ccc(C)cc1,0.7,i,5%,-3.1,11,4,-0.2,5.8,46
Cc1ccc(N(CC(=O)N2CCCCCC2)S(=O)(=O)c2ccccc2)cc1,0.66,i,.,-14,-8,-16,-0.8,-0.5,-2
O=C1c2ccccc2CN1CCNC(=S)NC1CCCCC1,0.74,i,1%,0.2,-8,3,0.0,14,20
CCOC(=O)N1CCN(C(=O)c2ccc3c(=O)n(CCc4ccc(OC)c(OC)c4)c(=O)[nH]c3c2)CC1,0.66,i,1%,-2.9,2,7,-0.2,1.9,-9
COc1ccc(S(=O)(=O)Nc2ccc3c(c2)CC(=O)N([C@@H](C)CO)C[C@@H](C)[C@@H](CN(C)S(=O)(=O)c2ccc(C)cc2)O3)cc1,.,i,.,2.7,0,-10,0.0,.,.
Cc1ccc(S(=O)(=O)N(c2cccc(C)c2)C2CCS(=O)(=O)C2)cc1 (centres undefined),0.68,.,20%,.,.,.,.,2.6,-7
Cc1ccccc1C(=O)NC(=S)Nc1ccccc1N1CCCC1,0.72,i,1%,4.1,9,5,25,-2.6,14
O=C(Nc1ccc(Br)cn1)c1cccc2ccccc12,0.62,i,.,0.8,14,14,1.6,-0.7,-1
COc1ccc(-c2cnc3c(c2)C(=O)N([C@H](C)CO)C[C@H](C)[C@@H](CN(C)C(=O)Cc2ccccn2)O3)cc1,.,i,.,-4.5,1,14,0.9,.,.
CN(C(=O)c1ccc(NC(=O)Cc2ccc(NC(=O)C3CCCN(C(=O)CCc4ccccc4)C3)cc2)cc1)C1CCCC1 (centres undefined),0.72,i,2%,1.5,-5,-6,9.1,3.8,.
CS(=O)(=O)Nc1ccc2c(c1)[C@@H]1C[C@@H](CC(=O)NCc3ccc(Cl)cc3)O[C@@H](CO)[C@@H]1O2,.,i,.,-6.8,4,8,4.6,.,.
O=C(NNC(=O)c1ccc[nH]1)c1cccc(C(F)(F)F)c1,0.62,i,-4%,-1.2,4,9,-1.1,5.2,4
O=C(CSc1nnc(CNC(=O)c2c(F)cccc2Cl)o1)NCc1ccccc1,0.6,i,.,-1.3,6,16,0.3,-4.9,-26
Cc1cccc(N2CC(O)=C(c3nc4ccccc4n3C)C2=N)c1,0.63,.,-5%,.,.,.,.,3.2,-1
Cn1c(=O)oc2cc(S(=O)(=O)N3CCCC(C(=O)Nc4nccs4)C3)ccc21 (centres undefined),.,i,0%,0.0,4,15,3.3,-3.3,.

# Screening results from PubChem.
